Tg IFNy HTS: inhibitors of Toxoplasma gondii growth with IFN-gamma | Toxoplasma gondii growth in IFN-gamma-treated host cells; stronger effect = lower value; reference of the scale not given here | activity change, negative = inhibition, %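 (about 20 µM by stock and volumes)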 | actives 3.8% (n = 69,000) | AID 1259416;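 active = below -70%; inconclusive = fit judged invalid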;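 note: host cells are HeLa cells infected with Toxoplasma gondii; parasite growth read as luciferase light; one replicate is shown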
* marks the source's active call; other numbers are inactive results; ? = inconclusive; ! = not active in a repeat. A portion of the library (hit frequency here may not be typical).

SMILES	Tg IFNy HTS
Cc1nccn1CC1CCCN(Cc2nc3ccccc3n2C)C1 (stereo not drawn)	9.0
C=CCO[C@H]1CN(S(=O)(=O)c2cn(C)cn2)[C@H]2COC[C@@H]12	44.1
C[C@@H]1O[C@@H](O[C@H]2[C@@H](Oc3cc(O)c4c(c3)O[C@H](c3ccc(O)cc3)CC4=O)O[C@H](CO)[C@@H](O)[C@@H]2O)[C@H](O)[C@H](O)[C@H]1O	5.4
Cn1c(CCC(=O)NCc2ccccc2N2CCCC2)nc2cc(Cl)ccc21	2.3
O=C(Cn1c(=O)cc(C(=O)N2CCCCC2)c2ccccc21)Nc1ccc2c(c1)OCCO2	7.6
Cc1cc(NC(=O)CSc2nnnn2Cc2ccccc2)no1	-15.3
c1ccc(C(c2ccccc2)c2n[nH]c3c2CNCC3)cc1	-48.9
CC(=O)N1CCC2O[C@H](COCc3csc(C)n3)CCC21 (stereo partly drawn)	-47.9
CCOC(=O)c1c(C)[nH]c(C(=O)N2CCC(O)(c3ccc(C)cn3)CC2)c1C	6.9
O=C1C[C@H](c2ccccc2)C(=O)N[C@@H](c2ccccc2)C/C=C\C[C@@H](c2ccccc2)N1	7.7
COc1ccc(-c2nc(Nc3cc(OC)ccc3OC)c3ccccc3n2)cc1	4.7
CCCNC(=O)N(C)C[C@H]1[C@H](c2ccccc2)[C@@H](CO)N1C(=O)c1ccccc1	16.6
CN(Cc1cc(C(C)(C)C)n[nH]1)C(=O)c1cnnn1-c1ccccc1	1.1
CCN1CCC(N2CCC(C(=O)N3CCOCC3)CC2)CC1	0.8
COc1ccc(N2C(=S)NC(C)(C)C=C2C)cc1	13.2

A portion of the results above:
SMILES	Tg IFNy HTS
CN(Cc1cc(C(C)(C)C)n[nH]1)C(=O)c1cnnn1-c1ccccc1	1.1
CCN1CCC(N2CCC(C(=O)N3CCOCC3)CC2)CC1	0.8
COc1ccc(N2C(=S)NC(C)(C)C=C2C)cc1	13.2

Among those listed so far, these have sulfur.
SMILES	Tg IFNy HTS
C=CCO[C@H]1CN(S(=O)(=O)c2cn(C)cn2)[C@H]2COC[C@@H]12	44.1
Cc1cc(NC(=O)CSc2nnnn2Cc2ccccc2)no1	-15.3
CC(=O)N1CCC2O[C@H](COCc3csc(C)n3)CCC21 (stereo partly drawn)	-47.9
COc1ccc(N2C(=S)NC(C)(C)C=C2C)cc1	13.2

Further structures:
SMILES	Tg IFNy HTS
CCn1c(=O)c(-c2nc(-c3ccccc3OC)no2)c(O)c2ccc(F)cc21	-1.8
CC(C)CCN1C[C@]23CN(Cc4cnn(C)c4)C[C@@H](C[C@H]2S1(=O)=O)O3	203.4
Cc1ccc(S(=O)(=O)N2CCCC(C(=O)Nc3ccc4c(c3)OCO4)C2)cc1 (stereo not drawn)	-3.2
Cc1ccc(CN(C)C(=O)C(C)n2ccnc2C(C)C)o1 (stereo not drawn)	-2.6
CC(C)=CCC(C)(C)/C=N/NC(N)=O	-11.6
NC(=O)c1noc(CN2CCCC(CCc3ccccc3F)C2)n1 (stereo not drawn)	-2.1
C=CCOCC1c2nnn(CC3CC3)c2CCN1Cc1cnn(C)c1 (stereo not drawn)	118.7
C[C@@H]1CN([C@@H](C)CO)C(=O)c2cc(NS(=O)(=O)c3cn(C)cn3)ccc2O[C@@H](C)CCCCO[C@@H]1CN(C)C(=O)Nc1ccc(C(F)(F)F)cc1	45.5
CCc1cc(=O)oc2cc3occ(-c4ccc(OC)c(F)c4)c3cc12	-78.3*
CN(C)CCOCc1nnn2c1CN(CC1CCOCC1)CCC2	77.9
Cc1ccc(S(=O)(=O)N[C@@H]2C=C[C@@H](CC(=O)NCc3ccc(Cl)c(Cl)c3)O[C@@H]2CO)cc1	27.9
CN1CCCCC1CCNC(=O)c1ccc(-c2cccc3ncccc23)nc1 (stereo not drawn)	-6.6
Cc1nc(-c2cccc(F)c2)sc1CCNS(=O)(=O)c1ccccc1	41.2
Cc1ccc(OC(=O)c2ccc(NC(=O)c3ccccc3)cc2)cc1	-2.0
FC(F)(F)c1cccc(N2CCN(/C=C/c3nnnn3-c3ccc(Cl)cc3)CC2)c1	-10.4

As entered above:
`C=CCOCC1c2nnn(CC3CC3)c2CCN1Cc1cnn(C)c1` (stereo not drawn) in Tg IFNy HTS reads 118.7
`CC(C)=CCC(C)(C)/C=N/NC(N)=O` in Tg IFNy HTS reads -11.6
`CC(C)CCN1C[C@]23CN(Cc4cnn(C)c4)C[C@@H](C[C@H]2S1(=O)=O)O3` in Tg IFNy HTS reads 203.4
`Cc1ccc(OC(=O)c2ccc(NC(=O)c3ccccc3)cc2)cc1` in Tg IFNy HTS reads -2.0

Part of the list above in a different format:
Molecule,Tg IFNy HTS
Cc1cc(NC(=O)CSc2nnnn2Cc2ccccc2)no1,-15.3
c1ccc(C(c2ccccc2)c2n[nH]c3c2CNCC3)cc1,-48.9

The results go on:
SMILES	Tg IFNy HTS
Cc1occc1C(=O)N1CCCn2c(nc(Cn3cncn3)cc2=O)C1	2.0
Oc1ccc([C@H]2COc3cc(O)ccc3C2)cc1	-73.2*!
CC(=O)N1CCC2(CC1)OC(=O)C(C)=C2C(=O)NCc1cccs1	181.1
CCN1c2cc(C)ccc2-n2cccc2C12CCN(S(=O)(=O)c1ccc(OC)c(OC)c1)CC2	-32.1
CCOC(=O)C1C(=O)NC(N2CCN(c3ccccc3)CC2)=NC1c1ccco1 (stereo not drawn)	9.2
COc1ccc([C@H]2C/C=C\C[C@@H](c3ccc4c(c3)OCO4)NC(=O)[C@@H](c3ccccc3)CC(=O)N2)c(OC)c1	-2.8
CC(C)N1c2sc(-c3ccsc3)nc2CC1C(=O)NCCN(C)C (stereo not drawn)	-8.3
Cc1nc(-c2cnccn2)ncc1S(=O)(=O)c1ccc(Cl)cc1	-11.1
COc1ccc(CNC(=O)c2cc3cc(S(=O)(=O)N(C)C)ccc3n2Cc2ccncc2)cc1	7.5
Cc1oc(-c2cccc(Br)c2)nc1CSc1nc2c(=O)[nH]cnc2n1C	-5.1
Cc1nsc(NC(=O)N2CCCCC2c2nc(C(C)C)no2)n1 (stereo not drawn)	-43.4
O=C(CC1CC2CCC1C2)Nc1ccc(NC(=O)c2ccccn2)cc1 (stereo not drawn)	98.7
C=CCc1c(C)nc(SC)nc1Nc1ccc(C(=O)O)cc1	-6.9
Cc1ccc(C(=O)N2CCC3O[C@@H](COc4cccnc4)CCC32)o1 (stereo partly drawn)	-0.2
CCC(c1ccccn1)N(C)C(=O)Cc1cc(C)no1 (stereo not drawn)	-5.8
O=S(=O)(c1ccc(F)cc1)N1C[C@@H]2[C@H](c3ccccc31)[C@@H](CO)N2Cc1ccccc1Cl	-2.9
COc1ccc(CCNC(=O)c2c(O)c3c([nH]c2=O)CCCC3)cc1	12.8
O=c1oc(-c2ccccc2)nc2c1C1(CCCCC1)Cc1ccccc1-2	-15.4
CCCN(C)C[C@H]1OCCCC[C@@H](C)Oc2ccc(NC(=O)CCCN(C)C)cc2C(=O)N([C@@H](C)CO)C[C@@H]1C	75.7
C[C@@H]1CN([C@H](C)CO)C(=O)c2cccc(NC(=O)c3ccncc3)c2O[C@@H]1CN(C)Cc1ccc2c(c1)OCO2	-0.8
Cc1ccc(-c2nc(C)c(CCNC(=O)C(=O)Nc3cc(C)ccc3C)s2)cc1	-65.6
O=C(c1cn[nH]n1)N(Cc1ccncc1)CC1CCCO1 (stereo not drawn)	1.6
N[C@H]1CN[C@H](C(=O)NCc2ccccc2OC(F)(F)F)C1	-1.4
CN(C)S(=O)(=O)CCNCCC(=O)N1CCCc2ccccc21	-7.8
O=C(O)C1c2ccccc2C(=O)N(C2CCCC2)C12CCCCC2 (stereo not drawn)	-10.6
O=C(c1ccccc1F)N1C[C@H](OCc2cccnc2)[C@@H]2COC[C@@H]21	-0.8
CN(C)C(=O)c1cccc(-c2ccc([C@@H]3[C@H]4CN(CC5CCOCC5)CCCCN4[C@H]3CO)cc2)c1	-6.2
CCC(C)[C@H]1O[C@]2(CC[C@@H]1C)C[C@@H]1C[C@@H](C/C=C(\C)[C@@H](OC3C[C@H](OC)C(O[C@H]4C[C@H](OC)[C@@H](O)[C@H](C)O4)[C@H](C)O3)[C@@H](C)/C=C/C=C3\CO[C@@H]4[C@H](O)C(C)=C[C@@H](C(=O)O1)[C@]34O)O2 (stereo partly drawn)	-80.0*
OCc1csc(-c2cccc3cnccc23)n1	-5.0
CC(=O)NC(C)c1ccc(-c2ccc3c(c2)OCO3)cc1 (stereo not drawn)	44.0
C[C@H](CO)N1C[C@H](C)[C@H](CN(C)S(=O)(=O)c2cn(C)cn2)Oc2c(NC(=O)Nc3ccc(C(F)(F)F)cc3)cccc2C1=O	16.8
O=c1c(Cl)c(NCCO)ncn1-c1ccccc1	6.6
COc1ccc(CN2CCCC(CNC(=O)C3(N)CCC3)C2)c(C)c1 (stereo not drawn)	-45.0
CCCc1cc(C(=O)N(C)Cc2nc(C)no2)cs1	0.3
O=C(NC1CC1)[C@H]1C[C@@H]2OCC[C@@H]2N(Cc2cccs2)C1	-1.6
Cc1ccc(CN(C)C(=O)c2ccc(-n3cnnc3)cc2)o1	4.5
Cc1oc(-c2ccc(F)cc2)nc1C(=O)Nc1cccc(-n2cnnc2)c1	9.8
CC(=O)Nc1cc(C)c(S(=O)(=O)Nc2ccc3c(c2)N(C)C(=O)CO3)cc1C	-3.3
CNC(=O)[C@H]1C[C@H]2CN(Cc3ccc(C)o3)C[C@H]1O2	-60.3
CCN1C(=O)C(c2ccccc2)CC12CCN(S(C)(=O)=O)CC2 (stereo not drawn)	60.2
O=C(c1cc2n(n1)CCCNC2)N1CCCC1c1nc2ccccc2s1 (stereo not drawn)	-5.7
Cc1cc(C(F)(F)F)nn1CC(=O)N1CCCC1c1ccc(F)cc1 (stereo not drawn)	-77.9*
CC(C)c1cc(C2CCN(C(=O)C[C@@H]3C[C@@H]4C=C[C@H]3C4)CC2)[nH]n1	204.2
COc1ccc2c3c([nH]c2c1)[C@H](CO)N(C(C)=O)CC31CCN(Cc2cc(-c3ccccc3)on2)CC1	-56.6
Cc1cccc(NC(=O)CC(=O)N(C)Cc2cc(C(C)(C)C)n[nH]2)c1C	-5.5
Cc1cc(CN2CCCC(C)C2)c(C)c(-c2nccn2CCO)c1 (stereo not drawn)	7.9
CC(C)CNC(=O)CC1CC2(CCN(C(=O)N3CCCC3)CC2)Oc2ccccc21 (stereo not drawn)	3.9
COc1ccc(-c2nc(CSc3nc4c(=O)[nH]cnc4n3-c3ccc(C)cc3)c(C)o2)cc1	3.8
CC1CCc2nc(NC(=O)Cn3cc(NC(=O)c4ccccn4)cn3)sc2C1 (stereo not drawn)	31.2
CC(C)N(C)Cc1cnc2n1CCN(Cc1ccc3c(c1)OCO3)C2	-3.7
Cc1ccc(C2SCCN2C(=O)c2cc3ccccc3oc2=O)cc1 (stereo not drawn)	-16.4
O=C(CN1CCOCC1)Nc1ccc(Oc2ccccc2)cc1	22.7
O=C1CCCc2cnnn2COC[C@@H](c2ccccc2)N1	-18.1
CC(C)CC#Cc1ccc([C@H]2[C@H]3CN(C(=O)Nc4cc(F)ccc4F)CC(=O)N3[C@H]2CO)cc1	-20.0
COc1ccc2c3c(n(C)c2c1)[C@@H](CO)N(C(=O)C1CCOCC1)CC31CCN(C(=O)c2ccncc2)CC1	-21.8
COc1ccc(OC)c(NC(=O)C(C)N2c3cccc4cccc(c34)S2(=O)=O)c1 (stereo not drawn)	-17.6
COC(=O)c1ccc(-c2cccc3c2OC(CNC(=O)C24CC5CC(CC(C5)C2)C4)C3)nc1 (stereo not drawn)	4.4
Cc1cc(C(=O)Oc2ccc(Cl)cc2)no1	0.0
OCCN(Cc1ccc2c(c1)OCCO2)Cc1cccs1	-2.9
C=CC[N@@+]12CC[C@]34c5ccccc5N5/C=C6\C7N(/C=C(\C53)[C@@H](C[C@@H]41)/C(=C/CO)C2)c1ccccc1[C@@]71CC[N@@+]2(CC=C)C/C(=C\CO)[C@@H]6C[C@@H]12 (stereo partly drawn)	16.3

(next part)
SMILES	Tg IFNy HTS
O=C(Cc1ccccc1)Nc1ccc2oc(=O)ccc2c1	-12.0
COc1ccc2c3c(n(C)c2c1)[C@H](CO)N(Cc1cccc(F)c1)CC31CCN(C(=O)Cc2ccccc2)CC1	?
Cc1ccc2nc(NC(=O)CN3C(=O)CCc4cc(S(=O)(=O)N5CCCC5)ccc43)sc2c1	-14.1
COc1ccc2c(c1)NC1(CCN(C(=O)Nc3cccc(Br)c3)CC1)c1cccn1-2	211.7
C/C=C/c1ccccc1[C@@H]1[C@@H](CO)N(c2ncc(CC)s2)[C@H]1C#N	21.3
O=S(=O)(NCCc1csc(-c2cccc(F)c2)n1)c1ccc(Cl)cc1	-24.1
O[C@@H]1C[C@H]2CN(Cc3cnc(NCc4ccccc4)nc3)C[C@H]2C[C@@H]1O	-7.4
O=C(NC1CCC1)[C@H]1C[C@H]2CN(Cc3ccccc3)C[C@H]1O2	18.3
Cn1ccn2ncc(C(=O)NCc3cccnc3N3CCCC(O)C3)c12 (stereo not drawn)	51.4
CC(SC(=S)N1CCCC1)C(=O)O (stereo not drawn)	8.7
C[C@H](c1ccc(Cl)cc1)n1c(CN)n[nH]c1=O	-47.8
O=C(N[C@H]1C=C[C@H](CC(=O)N2CCC(Cc3ccccc3)CC2)O[C@@H]1CO)c1cnccn1	-23.3
COc1ccc(-c2nc(NCCN(C)C3CCCCC3)c3ccccc3n2)cc1	-77.0
CSc1nnc(C2CCCN2C(=O)c2cc(C(F)(F)F)nn2C)n1C (stereo not drawn)	-4.6
Cc1ccc(NC(=O)Nc2ccc(OCc3ccccc3)cc2)cc1NS(C)(=O)=O	-46.2
Cc1nccn1CCNC(=O)C1ON=C(c2ccc(F)cc2)C1C (stereo not drawn)	7.2
CN(C)c1ncc(-c2cnn(C)c2)c(C2CCCCN2C(=O)CCc2ccc(F)cc2)n1 (stereo not drawn)	-1.4
CN1CCN(Cc2cn[nH]c2-c2ccc(F)cc2)CC1	3.8
Clc1ccccc1CSc1nc(NCCc2ccccc2)c2ccccc2n1	-42.1
CS(=O)(=O)N1CCn2c(-c3cccc(F)c3)cnc2C12CCN(c1ncccn1)CC2	-54.7
CCN(Cc1ccccc1)S(=O)(=O)c1ccc(Cl)cc1	36.7
O=C(CCc1cccnc1)N1CCC2(CN(Cc3cccc(F)c3)C2)C1	-62.3
